From PubChem
Vif TR-FRET – inhibitors of Vif binding to APOBEC3G peptide, primary screen, biochemical, TR-FRET, GST-Vif 1-94, biotin-A3G peptide, dose response retest (AID 1117319) | one-dose inhibition, %; IC50 in µM for titrated hits | Virion infectivity factor (Human immunodeficiency virus type 1 group M subtype B (isolate … | TR-FRET GST-Vif / biotin-A3G peptide binding; higher % means a stronger effect; test concentration not given here; strong numbers were not always called active | 260,000 tested, 0.57% active;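 active = above the screen mean plus three standard deviations and confirmed in dose response; inconclusive = results disagree or hit not tested in dose response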;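 note: Vif residues 1-94 fused to GST binding biotinylated APOBEC3G peptide 110-148; 0% = full assay without inhibitor and 100% = GST in place of GST-Vif; retest series ran down from 100 µM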
MLL AF4-AF9 inh – inhibitors of AF4 peptide binding to AF9, primary screen, biochemical, AlphaScreen, biotin-AF4 peptide, FLAG-AF9, single point. 350,000 tested, 0.47% active. inhibition, % at 10 µM. Protein AF-9 (Homo sapiens), P42568;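 active = every replicate reaching a set inhibition limit, whatever the replicate mean, cut at about 25% in these data; inconclusive = mean inhibition reaches that limit but some replicates miss it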;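 note: 0% = plate neutral control median and 100% = total signal loss; the record names both 10 and 1 µM as test concentration; the first replicate is given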
Target sequence (P42568 whole entry, looked up): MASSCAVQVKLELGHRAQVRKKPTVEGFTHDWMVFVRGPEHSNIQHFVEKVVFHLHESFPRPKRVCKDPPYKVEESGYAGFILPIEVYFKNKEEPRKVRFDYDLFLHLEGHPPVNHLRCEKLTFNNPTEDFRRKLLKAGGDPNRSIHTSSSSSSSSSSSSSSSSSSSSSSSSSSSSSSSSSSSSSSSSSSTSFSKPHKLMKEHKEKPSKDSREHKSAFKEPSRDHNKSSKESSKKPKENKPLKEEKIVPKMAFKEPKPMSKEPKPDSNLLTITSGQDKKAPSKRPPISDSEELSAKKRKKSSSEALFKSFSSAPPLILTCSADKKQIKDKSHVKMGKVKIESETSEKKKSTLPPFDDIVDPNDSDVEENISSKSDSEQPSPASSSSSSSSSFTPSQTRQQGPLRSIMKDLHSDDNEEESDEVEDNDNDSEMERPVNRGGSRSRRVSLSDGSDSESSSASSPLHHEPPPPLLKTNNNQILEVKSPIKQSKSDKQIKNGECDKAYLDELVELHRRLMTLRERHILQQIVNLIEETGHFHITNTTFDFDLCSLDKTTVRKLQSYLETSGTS
RanGTP-Imp inh – inhibitors of RanGTP-importin-beta interaction, primary screen, biochemical, FRET, CFP-Ran, YFP-importin-beta, homogeneous; 300,000 tested, 1.1% active; inhibition, % (concentration not given with the values); AID 2216, 2009; cell-free CFP-Ran/YFP-importin-beta FRET ratio;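 active = most replicates above 15%; inconclusive = exactly half above 15%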;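 note: 0% = DMSO wells and 100% = Ran loaded with GDP instead of GTP; wells of about 40 µL received 100 nL stock; the first replicate is given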
UCH37 DUB inh – inhibitors of human UCH37 deubiquitinase, primary screen, biochemical, Ub-AMC cleavage, fluorescence | 330,000 tested, 0.33% active | purified proteasome/UCH37 | AID 588478, 2011 | inhibition, % (test concentration not listed);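 active = mean of two replicates above 20%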;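 note: 0% = compound-free wells with enzyme and 100% = wells lacking proteasome; stock transfer was 100 nL into about 20 µL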
Target sequence (Q9Y5K5 whole entry, looked up): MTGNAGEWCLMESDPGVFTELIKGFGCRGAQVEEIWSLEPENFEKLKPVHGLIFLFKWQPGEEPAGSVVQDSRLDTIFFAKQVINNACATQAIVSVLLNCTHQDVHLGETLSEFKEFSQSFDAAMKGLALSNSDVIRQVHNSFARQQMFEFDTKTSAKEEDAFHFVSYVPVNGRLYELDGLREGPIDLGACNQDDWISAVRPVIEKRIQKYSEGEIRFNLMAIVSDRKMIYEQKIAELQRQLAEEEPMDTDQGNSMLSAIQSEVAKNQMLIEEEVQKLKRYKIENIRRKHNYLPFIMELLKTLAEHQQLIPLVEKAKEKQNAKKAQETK
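Schedule: 30 min plus 25 min, room temperature / Material: human UCH37 within purified proteasomes / Technique: AMC fluorescence intensity at 355/460 nm / Buffer or medium: pH 7.4 Tris-HCl (50 mM) with ovalbumin, ATP-MgCl2, DTT / Controls: wells without proteasome as full block, compound-free enzyme plus substrate as uninhibited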
Ecoli growth – E. coli growth inhibition, primary screen, OD600; OD600 absorbance (test concentration not listed); Escherichia coli growth, 23 h; stronger effect = lower value; 330,000 tested, 0.21% active; AID 1053175, 2014;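 active = OD600 absorbance below the run mean of sample wells minus 3.6 SD, in any replicate, cut at about 0.56 in these data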;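 note: stock transfer was 300 nL into about 60 µL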
FGF22 binding – binders of human FGF22 protein, primary screen, FGF22 synaptogenesis inhibitor project, biophysical, thermal shift, single point. Fibroblast growth factor 22 (Homo sapiens), Q9HCT0. recombinant FGF22 thermal shift, SYPRO orange fluorescence; percent of sucrose octasulfate shift, DMSO zero. calls only at 9.99 µM. 340,000 tested, 1.5% active;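 active = melting point raised past a set limit in the mean and every replicate; inconclusive = no clear call; three in four hits are not shown here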
Target sequence (Q9HCT0 whole entry, looked up): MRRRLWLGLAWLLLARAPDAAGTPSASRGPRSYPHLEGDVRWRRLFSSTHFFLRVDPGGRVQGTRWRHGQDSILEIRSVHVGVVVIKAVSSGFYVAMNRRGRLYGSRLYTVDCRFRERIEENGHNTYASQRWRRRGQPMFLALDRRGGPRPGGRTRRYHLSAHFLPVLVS
HNF4A DNA FP – change in binding of human HNF4A to DNA, primary screen, biochemical, fluorescence polarization, FITC-DNA; Hepatocyte nuclear factor 4-alpha (Homo sapiens), P41235; 1 h; activity change, % at 10 µM; 360,000 tested, 0.3% active; AID 1224865, 2016; in the data active = activity change above about 30%, passing the limit was not always enough;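 note: controls were the assay level and a saturating level of protein; the project sought stronger binding though the title names inhibitors; some compounds called inactive have numbers as strong as hits; positive values seem to mean higher polarization but the record does not say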
Active calls of the source: *; i = inactive; ? = inconclusive; · = not tested or not shown.

SMILES	Vif TR-FRET	MLL AF4-AF9 inh	RanGTP-Imp inh	UCH37 DUB inh	Ecoli growth	FGF22 binding	HNF4A DNA FP
CCCCn1c(N)c(N(Cc2ccccc2OC)C(=O)COc2ccccc2C#N)c(=O)[nH]c1=O	·	4.0	5.5	0.2	0.63	i	-0.2
Cn1c(N)c(C(=O)CSc2nc(N)cc(=O)[nH]2)c(=O)n(C)c1=O	7%	·	2.6	1.7	0.68	·	0.9
CCNC(=S)NNC(=O)C1CCCCC1	10%	·	-1.2	1.7	0.67	·	-0.3
Cc1ccccc1C(=O)N1CCC(C(=O)N2CCN(S(=O)(=O)c3ccccc3F)CC2)CC1	·	-7.2	0.1	4.5	0.67	i	1.7
CCOC(=O)c1cccc(NC(=O)c2cc3ccccc3o2)c1	·	-1.0	4.9	5.1	0.63	i	-2.1
Nc1nc(-c2ccccn2)nc(N)c1Cc1ccccc1F	7%	5.9	?	-3.6	0.64	i	-0.4
Cc1ccc(S(=O)(=O)N(C)C)cc1NC(=O)c1cc(C(C)(C)C)nn1Cc1ccccc1	-5%	5.2	1.8	3.0	0.63	i	-2.5
OC(CNCC(c1ccco1)N1CCCCC1)c1ccccc1 (stereo unspecified)	-5%	·	4.1	0.0	0.68	·	-0.6
CC(C)Cn1c(C(C)C)nc([N+](=O)[O-])c1Sc1ccc(Cl)cn1	33%	·	?	3.8	0.66	·	-1.0
O=C(C1CCN(Cc2nc(Cc3cccc(F)c3)no2)CC1)N1CCOCC1	·	-2.9	-0.6	3.3	0.73	i	-0.5
C1CN(c2nc3nonc3n3nnnc23)CCO1	-5%	·	?	5.6	0.68	·	0.7
O=C(Nc1nc(-c2ccc(F)cc2)cs1)c1cnccn1	10%	1.2	8.8	0.7	0.69	i	-4.9
Cc1cc(C)c(C#N)c(SCC(=O)NN2CC(=O)N(c3ccccc3F)CC2=O)n1	0%	·	6.0	-15	0.68	·	6.0
CC1(C)Oc2ccc3ccc(=O)oc3c2/C(=C/Nc2ccc(O)cc2)C1=O	3%	-1.6	-3.4	4.4	·	·	8.6
O=C(CSc1nc(=O)n(CCCN2CCOCC2)c2c1CCC2)Nc1ccc(F)cc1F	-6%	-3.8	-1.1	2.3	0.64	i	0.1

Record cards, as listed above. Order of screens: Vif TR-FRET, MLL AF4-AF9 inh, RanGTP-Imp inh, UCH37 DUB inh, Ecoli growth, FGF22 binding, HNF4A DNA FP
CCOC(=O)c1cccc(NC(=O)c2cc3ccccc3o2)c1 is entered as ·, -1.0, 4.9, 5.1, 0.63, i, -2.1
CC(C)Cn1c(C(C)C)nc([N+](=O)[O-])c1Sc1ccc(Cl)cn1 is entered as 33%, ·, ?, 3.8, 0.66, ·, -1.0
O=C(Nc1nc(-c2ccc(F)cc2)cs1)c1cnccn1 is entered as 10%, 1.2, 8.8, 0.7, 0.69, i, -4.9

(more compounds)
SMILES	Vif TR-FRET	MLL AF4-AF9 inh	RanGTP-Imp inh	UCH37 DUB inh	Ecoli growth	FGF22 binding	HNF4A DNA FP
O=C(OCc1ccccc1F)c1cc([N+](=O)[O-])ccc1N1CCOCC1	·	-8.8	3.7	·	·	i	-1.3
CC(=O)c1c(-c2ccc(C)cc2)nc2c3ccccc3ccn12	-12%	-2.7	5.4	3.6	0.68	i	2.3
CCCCCCN1C[C@@H](O)[C@H](n2cc(-c3ccc(F)cc3)nn2)C[C@@H]1c1ccccc1	·	-0.2	·	·	·	i	1.2
Nc1ccn([C@@H]2O[C@H](CNC(=O)[C@H]3CCC(=O)N3)[C@@H](O)[C@H]2O)c(=O)n1	-1%	-0.7	·	·	·	i	1.8
CN(CC(=O)NCCc1ccc(S(N)(=O)=O)cc1)CC(=O)Nc1ccccc1Cl	-1%	1.0	·	3.0	0.7	i	-3.1
COc1ccc(OC)c(C(=O)CSc2nnc(-c3ccc(OC)c(OC)c3)o2)c1	-1%	·	·	-43	0.65	·	·
CC(=O)Nc1nc(SCC(=O)Nc2nnc(C)s2)[nH]c(=O)c1NC(=O)c1cccs1	·	-11	-1.2	0.4	0.71	i	0.0
Cc1ccccc1S(=O)(=O)Cc1ccc(C(=O)NCCCN(C)Cc2ccccc2)o1	·	2.4	-3.5	0.5	0.64	i	4.1
COCCN1C(=O)COc2ccccc2C1C(=O)Nc1c(C)cccc1C (stereo unspecified)	·	-4.7	·	·	·	i	2.3
COc1ccc(NC(=O)C(=O)NCCN2CCN(C(=O)c3ccc(C(C)(C)C)cc3)CC2)cc1	·	-3.3	-0.7	3.6	0.77	i	1.1
C/C(CC(=O)Nc1ccccn1)=N\NC(=O)C(=O)Nc1cccc(C)c1	?	·	2.4	·	·	·	-4.5
CCNC(=S)N/N=C(\C)c1cccc([N+](=O)[O-])c1	-4%	0.0	?	·	·	i	4.7
COc1ccccc1NC(=O)c1ccc([N+](=O)[O-])cc1[N+](=O)[O-]	14%	2.3	?	3.5	0.69	i	1.5
O=C(CNC(=O)c1ccco1)NCC(c1ccco1)N1CCCCC1 (stereo unspecified)	-5%	3.0	·	-4.0	0.71	i	1.3
CN1CCC(N(C)C(=O)COc2ccc(S(=O)(=O)N3CCOCC3)cc2)CC1	21%	-6.9	-0.8	-0.6	0.65	i	-2.5
COc1ccccc1CNC(=O)C[C@@H]1CC[C@H]2[C@@H](COC[C@H](O)CN2Cc2ccccc2)O1	·	0.6	·	·	·	i	5.9
COC(=O)c1cc(C)sc1NC(=O)C1CC=CCC1C(=O)O (stereo unspecified)	13%	1.2	-0.4	2.8	0.68	i	1.6
CC(=O)OCCN(C)c1cc(SC(C)C)c2nonc2c1[N+](=O)[O-]	·	5.3	3.3	15	0.69	i	0.0
CCOC(=O)Cc1c(C)[nH]c(=S)[nH]c1=O	-4%	·	-1.5	1.7	0.7	·	-0.9
CCS(=O)(=O)N1Cc2cc(C(=O)N(C)C)nc(-c3cccc(-c4ccc(F)cc4)c3)c2[C@@H]1CCO	·	0.6	·	·	·	i	1.1
O=C(O)CCCC(=O)N1CCc2cc(S(=O)(=O)NCc3ccc(F)cc3)ccc21	2%	-1.3	-3.4	-0.7	0.68	i	-0.2
COc1cc(OC)c2cc[nH]c2c1	-3%	-0.4	?	2.5	0.67	i	0.8
CC(=O)c1c(C)[nH]c(C(=O)COc2ccc3c(C)cc(=O)oc3c2)c1C	4%	-0.7	·	-4.6	0.65	i	5.0
COc1cc(/C=N/Nc2nc(Nc3ccc(C)cc3)nc(-n3nc(C)cc3C)n2)cc(OC)c1OC	18%	·	2.4	·	·	·	-0.6
COc1cc(OC)cc(C(=O)N[C@H](C(=O)NC2=NCCS2)C(C)C)c1	·	-1.6	·	2.8	0.69	i	-1.4
COc1cc(NC(=O)CN2C(=O)COc3ccc(S(=O)(=O)N4CCCCC4)cc32)cc(OC)c1	·	-3.1	2.3	1.6	0.69	i	3.7
CC(C)N(Cc1ccccc1)C(=O)c1ccc2c(c1)OCO2	-2%	-1.0	6.7	1.1	0.67	i	-1.2
CC1(C2CC2)NC(=O)N(CC(=O)Nc2ccc(Cl)c([N+](=O)[O-])c2)C1=O (stereo unspecified)	·	6.1	·	1.6	0.69	i	-0.5
O=S(=O)(Nc1cccc2ccccc12)c1ccccc1F	·	0.3	3.3	1.2	0.67	i	-0.4
Cc1cccc(OCC(=O)Nc2cc(Cl)ccc2-n2cncn2)c1C	-9%	-1.8	?	0.0	0.63	i	1.2
CCn1c(SCC(=O)NC2CC2)nnc1-c1ccc(OC)cc1	6%	-3.7	0.5	1.4	0.68	i	-0.9
CN1C(=O)/C(=C/C=C2\SCCN2C)N(C)C1=S	3%	1.1	2.1	10	·	i	119*
Cc1ccc(C)n1-n1c(C)nc2scc(-c3ccccc3)c2c1=O	4%	·	-0.4	3.1	0.67	·	-0.5
COc1ccccc1NC(=S)N1CCCc2ccccc21	-3%	2.9	5.5	0.6	0.7	i	-2.1
CCN(CC)S(=O)(=O)c1cccc(C(=O)N[C@@H](C)c2nc3ccccc3[nH]2)c1	-7%	-0.9	1.3	-0.2	0.63	i	·
CCOC(=O)Cn1cnc2c(sc3nc(C)cc(C)c32)c1=O	14%	·	1.7	3.1	0.66	i	-0.5
O=C(COC(=O)Cc1ccsc1)Nc1ccc(Cl)cc1F	5%	-1.5	·	3.6	0.7	i	-0.1
COC(=O)c1cccc(-n2c(C)cc(C=O)c2C)c1	·	5.4	3.3	2.7	0.71	i	-1.0
COc1ccc(N2C(=O)C(CC(=O)Nc3ccc(F)cc3)N(CCc3ccc(OC)c(OC)c3)C2=O)cc1 (stereo unspecified)	-1%	2.3	-1.9	2.1	0.68	i	-4.4
O=C(CSc1ncccn1)N1CCC(Cc2ccccc2)CC1	-1%	-2.1	0.8	1.5	0.69	i	6.7
Cc1ccn2cc(CCNC(=O)CC(C)(C)C)nc2c1	31%	·	5.3	-7.0	0.75	·	1.1
N#CCS(=O)(=O)c1ccccc1	·	-0.3	3.9	-3.2	0.63	i	3.3
Cc1ccc(-n2ncc3c(N4CCC(C(N)=O)CC4)ncnc32)c(C)c1	?	·	-0.6	3.2	0.67	·	1.9
CCCCCCOC(=O)c1ccc(OC(=O)c2cccnc2)cc1	-1%	·	-3.7	1.4	0.66	·	-0.3
Cc1csc2c(N3CCN(C(=O)NC(C)(C)C)CC3)ncnc12	-13%	-0.1	1.3	1.2	0.61	i	-2.2
CSc1ccc(Cl)c(C(=O)OCC(=O)N2CCN(c3ccccc3)CC2)c1	5%	-1.9	·	-0.4	0.7	i	-1.9
C=CCc1ccc(OCCCCNC2CCCC2)c(OC)c1	-4%	0.6	-0.9	1.3	0.66	i	-1.1
O=S(=O)(c1cc(Cl)ccc1Cl)N1CC2CCCN2c2ccc(C(F)(F)F)cc21 (stereo unspecified)	-6%	·	-1.5	-0.7	0.75	·	-1.3
CC(=O)N/C(=C\c1ccccc1)C(=O)OCC(=O)Nc1cc(S(=O)(=O)N(C)C)ccc1C	-1%	-0.9	2.2	2.0	0.66	i	0.1
COc1ccccc1CNC(=O)CN1C(=O)COc2ccc(S(=O)(=O)NC3CCCC3)cc21	1%	-1.8	0.0	0.3	0.67	i	0.1
COC(=O)c1ccc(NC(=S)N2CCN(C(=O)c3ccco3)CC2)cc1	·	1.2	-4.5	-1.4	0.69	i	4.8
COc1ccc(NC(=O)C2CC2)cc1S(=O)(=O)N1CCOCC1	-8%	-7.1	·	1.7	0.7	i	-4.6
CCc1ccc(OC(=O)c2cncc(Br)c2)cc1	-4%	0.9	0.7	5.4	0.67	i	0.0
CN(C)C(CNC(=O)c1cccc(S(=O)(=O)N2CCN(c3ccccc3)CC2)c1)c1ccccc1 (stereo unspecified)	·	12	·	3.9	0.67	i	-6.1
Cc1c(CN2CCC(CO)(Cc3cccc(C(F)(F)F)c3)CC2)c2ccccc2n1C	98%	16	-2.9	2.4	0.64	·	6.5
Cc1ccc2c(c1)C1CN(C)CCC1N2C(=O)COc1ccc(N(C)C(=O)C(C)(C)C)cc1 (stereo unspecified)	?	7.1	4.5	2.9	0.7	i	2.1
CCOc1ccc(NC(=S)N(C)C)cc1	3%	6.4	3.8	1.0	0.7	i	2.1
COc1ccccc1N1CCN(C2CCCN(Cc3cc(F)cc(F)c3)C2)CC1 (stereo unspecified)	·	5.2	?	0.1	0.62	i	-0.5
CCOC(=O)c1ccccc1NC(=O)[C@@H]1CCCN1C(=O)OC(C)(C)C	3%	0.1	0.5	3.5	0.67	i	2.4

These rows are one share of the data; rates above refer to the full screens.
